High-throughput results: PubChem BioAssay, Emory University Molecular Libraries Screening Center
Measles inh – inhibitors of measles virus growth in cells, primary screen, measles RdRp inhibitor project, cell-based, single point, HTS; infected Vero cells, GFP fluorescence, 64 h; stronger effect = lower value; z-score (concentration not given with the values); actives 0.1% (n = 33,000);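 active = z-score under -3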;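 also: score is relative to mean and SD of the compound wells of a plate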
Numbers without * were called inactive.

SMILES	Measles inh
Cn1c(=O)c2c(nc3n(Cc4ccco4)c(-c4ccc(F)cc4)cn23)n(C)c1=O	-0.26
Cc1nn(C(=O)c2c(Cl)cnn2C)c(C)c1Br	-0.39
Cc1ccc(C23CC4CC(CC(C(=O)N5CCCCC5)(C4)C2)C3)cc1	-0.04
CC(=O)N1CCc2cc(Br)cc(S(=O)(=O)NCCCN3CCCCCC3)c21	0.64
C=CCSc1nnc2c(n1)OC1(CCCCC1)Nc1ccccc1-2	-1.1
CCOC(=O)C1=C(C)N(C)C(=S)NC1c1ccc(OC(=O)c2ccccc2)cc1 (stereo unspecified)	-1
O=C(CN(Cc1ccc(Br)cc1)S(=O)(=O)c1ccccc1)Nc1ccc2c(c1)OCO2	-0.91
O=C1c2ccc(Oc3ccc([N+](=O)[O-])cc3)cc2C(=O)N1Cc1cccnc1	0.82
CC1=C(C(=O)Nc2ccc(Br)cn2)C(c2ccc(N(C)C)cc2)C2=C(CC(C)(C)CC2=O)N1 (stereo unspecified)	-0.63
CCOC(=O)C1CCN(C(C(=O)Nc2ccc(C)cc2)c2ccccc2)CC1 (stereo unspecified)	0.15
COC(=O)c1c(N2C(=O)C3ON(c4ccccc4)C(c4cccc([N+](=O)[O-])c4)C3C2=O)sc(C)c1C (stereo unspecified)	-1
CCOC(=O)c1c(NC(=O)c2ccc(S(=O)(=O)N3CC4(C)CC3CC(C)(C)C4)cc2)sc2c1CCN(CC)C2 (stereo unspecified)	2
O=C(NCc1cccnc1)C(NS(=O)(=O)c1ccc(Br)s1)c1ccccc1 (stereo unspecified)	1.1
CCn1c2ccccc2n2cc(-c3ccc([N+](=O)[O-])cc3)nc12	0.36
COc1cccc(NS(=O)(=O)c2ccc3[nH]cc(C(=O)NCc4ccccc4Cl)c(=O)c3c2)c1	-0.96
O=C(NC1CCCCC1)c1c[nH]c2ccc(S(=O)(=O)N3CCOCC3)cc2c1=O	0.55
CCCc1c(C)c2cc3c(-c4ccccc4)coc3cc2oc1=O	-0.39
CC(=O)Oc1ccc2oc3c(c2c1)C(=O)CCC3	1
COc1ccc(OCC(O)Cn2c(=N)n(C)c3ccccc32)cc1 (stereo unspecified)	-1.1
CCOC(=O)c1ccc(NS(=O)C23CC4CC(CC(C4)C2)C3)cc1 (stereo unspecified)	-2.3
O=C(CSC1=NC(=O)C(Cc2ccccc2)C(=O)N1)NC1CCCCC1 (stereo unspecified)	-0.78
Cc1ccc(CNC(=O)C(Cc2ccccc2)NS(=O)(=O)c2ccc(F)cc2)cc1 (stereo unspecified)	0.02
CCOc1ccc(N2C(=O)CC(Nc3ccc(N4CCCCC4)cc3)C2=O)cc1 (stereo unspecified)	1.5
CCCN1C(=O)c2ccc(C(=O)c3ccc(C(=O)O)cc3)cc2C1=O	0.07
CC1(C)Cc2nc3sc4c(=O)[nH]cnc4c3cc2CO1	-0.16

3 of the compounds above, bar-delimited.
smiles | Measles inh
Cc1ccc(CNC(=O)C(Cc2ccccc2)NS(=O)(=O)c2ccc(F)cc2)cc1 (stereo unspecified) | 0.02
CCOc1ccc(N2C(=O)CC(Nc3ccc(N4CCCCC4)cc3)C2=O)cc1 (stereo unspecified) | 1.5
CCCN1C(=O)c2ccc(C(=O)c3ccc(C(=O)O)cc3)cc2C1=O | 0.07

(next part)
SMILES	Measles inh
CCN1CCN(c2cc(Nc3ccc(F)cc3)c3c4c(onc24)-c2ccccc2C3=O)CC1	0.09
CC(=O)Nc1ccc(S(=O)(=O)Nc2cccc([N+](=O)[O-])c2C)cc1	-0.07
O=C(OCc1nc2ccccc2[nH]1)C12CC3CC(CC(C3)C1)C2	-0.69
O=C(CN1C(=O)CSc2ccccc21)NCCCN1CCC(Cc2ccccc2)CC1	1.2
COc1ccc(-n2nc([N+](=O)[O-])c(=NCc3ccco3)n2O)cc1	0.19
O=C(CCC(=O)OCC(=O)c1ccc([N+](=O)[O-])cc1)Nc1cccc(Cl)c1	0.79
COc1ccc(OCc2nc3ccccc3n2CCc2ccccc2)cc1	-0.6
COc1cc(OC)c(NC(=O)c2sc3ncnc(N(C)c4ccccc4)c3c2C)cc1Cl	0.92
COc1ccc(NC(=O)C2c3ccccc3C(=O)N3CCc4cc(OC)c(OC)cc4C23)c(OC)c1 (stereo unspecified)	-1.2
COc1ccccc1NC(=O)CSc1nnc2c3ccccc3n(C(C)C)c2n1	-0.12
Cc1ccc2c(c1)c(-c1ccccc1)c(-c1ccccc1)n2CC(O)CN1CCOCC1 (stereo unspecified)	-1.9
CCC(=O)N1c2ccc(S(=O)(=O)NCCN3CCC(C)CC3)cc2CC1C (stereo unspecified)	-0.26
NS(=O)(=O)c1ccc(Cl)c(C(=O)Nc2cccc([N+](=O)[O-])c2)c1	-0.76
Cc1oc2ccc(NS(=O)(=O)c3cccc([N+](=O)[O-])c3)cc2c1C(=O)OC(C)C	-0.15
CC(C)(C)c1ccc(S(=O)(=O)N2CCN(C(c3ccccc3)c3ccccc3)CC2)cc1	1.6
Cc1nn(C(=O)c2cccs2)c(C)c1Sc1ccc(Cl)cc1	-0.82
COc1ccc(OC)c2[nH]c(=O)c(CCNC(=O)c3ccc(S(=O)(=O)N4CCCCC4)cc3)cc12	-0.53
CCCCCn1c(SCc2cccc([N+](=O)[O-])c2)nc2cc(C(=O)N3CCCC3)ccc2c1=O	0.03
O=S(=O)(c1ccc(Cl)s1)N1CCN(Cc2ccc3c(c2)OCO3)CC1	-0.47
COc1cccc(OC2=C(Cl)C(=O)N(c3ccc(C)cc3)C2=O)c1	-0.38
CC(C)(C)c1ccc(C(=O)Nc2ccc(Cl)c(NC(=O)c3ccccc3)c2)cc1	0.41
CCc1ccc(C2NC(=O)NC(C)=C2C(=O)OCCOc2ccccc2)cc1 (stereo unspecified)	0.59
Cc1cccc(Nc2ncc([N+](=O)[O-])cc2[N+](=O)[O-])n1	0.02
O=c1cc(-c2cc(Cl)cc3c2OCOC3)oc2ccc(Cl)cc12	1.3
Cc1cc2c(cc1C)NC(C(F)(F)F)=CC(c1cccs1)=N2	-0.51

6 of the entries above in order of their number in Measles inh, highest first:
SMILES	Measles inh
CC(C)(C)c1ccc(S(=O)(=O)N2CCN(C(c3ccccc3)c3ccccc3)CC2)cc1	1.6
COc1ccc(-n2nc([N+](=O)[O-])c(=NCc3ccco3)n2O)cc1	0.19
O=S(=O)(c1ccc(Cl)s1)N1CCN(Cc2ccc3c(c2)OCO3)CC1	-0.47
COc1ccc(OC)c2[nH]c(=O)c(CCNC(=O)c3ccc(S(=O)(=O)N4CCCCC4)cc3)cc12	-0.53
COc1ccc(NC(=O)C2c3ccccc3C(=O)N3CCc4cc(OC)c(OC)cc4C23)c(OC)c1 (stereo unspecified)	-1.2
Cc1ccc2c(c1)c(-c1ccccc1)c(-c1ccccc1)n2CC(O)CN1CCOCC1 (stereo unspecified)	-1.9

(cont.)
SMILES	Measles inh
COc1ccc(CNC(=O)C2CCN(C(=O)c3ccccc3C)CC2)cc1	0.18
COc1ccc2cc3cc(C(=O)Nc4ccc(Br)cc4C)oc3nc2c1	-0.88
CC(NC(=O)c1sc(=S)n(CCc2ccccc2)c1N)c1ccccc1 (stereo unspecified)	-0.21
COCCOC(=O)C1=C(C)NC2=C(C(=O)CC(c3ccc(OC)cc3)C2)C1c1cccc([N+](=O)[O-])c1 (stereo unspecified)	-1.1
CN(C(=O)CSC1=Nc2ccccc2C2=NC(c3ccccc3)C(=O)N12)C1CCCCC1 (stereo unspecified)	0.35
COc1ccc(CCn2c(=S)[nH]c3cc(C(=O)N4CCC(C(N)=O)CC4)ccc3c2=O)cc1OC	1.9
Clc1ccc(CSc2nc3ccccc3o2)cc1	-0.39
CCCC1C(=O)CC(C#N)(C#N)C(C#N)(C#N)C1C (stereo unspecified)	2
O=C(CSc1nc2cc(C(=O)N3CCOCC3)ccc2c(=O)n1CCc1ccccc1)c1ccccc1	-0.16
COc1cccc(C2CC(c3ccc(Br)cc3)=NN2S(C)(=O)=O)c1OC (stereo unspecified)	0.76
CC(=O)N(c1ccc(F)cc1)c1nc(-c2cc3ccccc3oc2=O)cs1	0
CC(NC(=O)c1c(O)c2cccc3c2n(c1=O)CCC3)c1ccccc1 (stereo unspecified)	1.6
O=C(Nc1cccc(C(F)(F)F)c1)c1ccc(F)c(S(=O)(=O)N2CCN(c3ccccc3F)CC2)c1	-0.96
COc1cccc(C2CC(c3ccc(I)cc3)Nc3nnnn32)c1OC (stereo unspecified)	-0.25
O=C1CC(c2ccccc2)N=C(SCC(=O)Nc2cccc3ccccc23)N1 (stereo unspecified)	1.2
CCOC(=O)C(C)(C)N(Cc1ccccc1F)S(=O)(=O)c1ccc(Br)cc1	-0.19
O=C1C(=O)N(c2nc3ccccc3s2)C(c2cccc(F)c2)/C1=C(\O)c1ccc(Cl)cc1 (stereo unspecified)	1.4
CCCCSc1nc2c([nH]c3ccccc32)c(=O)n1-c1ccccc1	-1.8
CC(C)(C)C1CCc2c(sc(NC(=O)c3ccccc3Cl)c2C(=O)NCc2ccco2)C1 (stereo unspecified)	-0.3
CCC(=O)N1CCc2cc(Br)cc(S(=O)(=O)NCCc3ccccc3)c21	-0.52
O=C(Nc1ccc2c(c1)C(=O)c1ccccc1C2=O)c1ccco1	-1.2
O=C1C2C3C=CC(CO)(O3)C2C(=O)N1c1cccc(Br)c1 (stereo unspecified)	0.06
Nc1[nH]c(=S)ncc1C(=O)O	0.12
Cc1ccc(-n2nc3cc(C)c(NC(=O)COc4ccc(Cl)cc4C)cc3n2)cc1	-0.35
CCOc1ccc(N=Cc2cc(C)cc(I)c2O)cc1	1.4

Some of the entries so far, comma-delimited.
SMILES,Measles inh
COc1ccc(NC(=O)C2c3ccccc3C(=O)N3CCc4cc(OC)c(OC)cc4C23)c(OC)c1 (stereo unspecified),-1.2
CC(C)(C)c1ccc(C(=O)Nc2ccc(Cl)c(NC(=O)c3ccccc3)c2)cc1,0.41
O=C1CC(c2ccccc2)N=C(SCC(=O)Nc2cccc3ccccc23)N1 (stereo unspecified),1.2
CC(=O)Nc1ccc(S(=O)(=O)Nc2cccc([N+](=O)[O-])c2C)cc1,-0.07
CC(C)(C)C1CCc2c(sc(NC(=O)c3ccccc3Cl)c2C(=O)NCc2ccco2)C1 (stereo unspecified),-0.3
CCOC(=O)C(C)(C)N(Cc1ccccc1F)S(=O)(=O)c1ccc(Br)cc1,-0.19

The results go on:
SMILES	Measles inh
COC(=O)C1=C(C)NC2=C(C(=O)CC(c3ccc(OC)c(OC)c3)C2)C1c1ccccc1Br (stereo unspecified)	0.02
Cc1ccc(-n2c(N)c(C(=O)Nc3ccc(F)cc3)sc2=S)c(C)c1	0.29
COCCN1C(=O)c2ccccc2C(C(=O)Nc2ccccc2OC)C1c1ccc(F)cc1 (stereo unspecified)	-0.56
O=C(O)CCCCNS(=O)(=O)c1ccccc1C(F)(F)F	-1.2
Cc1ccc(OCCN2CCN(c3cc(C)c(C#N)c4nc5ccccc5n34)CC2)cc1	-0.18
Cc1cc([N+](=O)[O-])cc2sc(NC(=O)C3CCCCC3)nc12	-0.42
Cn1c(SCC(=O)NCCc2ccccc2)nc2c1c(=O)n(Cc1ccccc1Cl)c(=O)n2C	0.82
COCCOC(=O)C1=C(C)NC2=C(C(=O)CCC2)C1c1cccc(I)c1 (stereo unspecified)	-0.25
O=C(NCCc1ccc(Cl)cc1)C1CCC(CNS(=O)(=O)c2cccs2)CC1 (stereo unspecified)	1.6
CCOC(=O)c1cnn2c(C)cc(-c3ccc(OCCC(C)C)cc3)nc12	-0.26
CCOc1ccccc1NC(=O)c1cc2c(=O)n3ccccc3nc2s1	1.2
CN(C)c1ccc(C(=O)N2N=C(c3ccc(Cl)cc3)CC2(O)C(F)(F)F)cc1 (stereo unspecified)	-1.8
COc1ccccc1NC(=O)c1ccc2c(c1)C(=O)N(c1ccc(I)cc1)C2=O	-0.48
CCN(CC)c1ccc(NC(=O)CCN2C(=O)c3cccc([N+](=O)[O-])c3C2=O)cc1	0.47
COc1ccc(CCNC(=O)c2c[nH]c3ccc(S(=O)(=O)N4CC(C)CC(C)C4)cc3c2=O)cc1OC (stereo unspecified)	-0.38
Cc1ccc(Nc2cc(C(=O)NCc3ccccc3)c3ccccc3n2)cc1C	0.3
O=c1c2ccc(Cl)cc2[nH]c(=S)n1Cc1ccco1	1
Cc1cc(C)nc(SCC(=O)Nc2ccc(Br)cn2)n1	-0.19
CSCC1CC1(Cl)Cl (stereo unspecified)	0.46
CSc1nc2ccc3nc(NC(=O)c4ccc(S(=O)(=O)N5CCc6ccccc6C5)cc4)sc3c2s1	1.4
Cc1ccc(CNC(=O)CN2C(=O)CSc3ccc(S(=O)(=O)N4CCOCC4)cc32)cc1	-0.8
CCC(C)c1ccc(NC(=O)CSc2nnnn2-c2ccc(OC)cc2)cc1 (stereo unspecified)	0.78
Cc1ccc(-c2noc(CCC(=O)N(C)Cc3ccccc3)n2)cc1	-0.14
O=C(C1CCC(CNS(=O)(=O)c2ccc(Br)s2)CC1)N1CCN(c2ccccc2)CC1 (stereo unspecified)	-0.48
CCCCN(C)S(=O)(=O)c1ccc(C(=O)Nc2nc3ccc4sc(C)nc4c3s2)cc1	-0.17

(continued)
SMILES	Measles inh
COc1ccc(OC(C)C(=O)Nc2cccc(OC)c2)cc1 (stereo unspecified)	0.16
NC(=O)c1c(NC(=O)c2cc3n(n2)C(C(F)(F)F)CC(c2ccco2)N3)sc2c1CCCC2 (stereo unspecified)	-0.11
O=C(Cn1c(=O)n(Cc2ccccc2)c(=O)c2ccccc21)NCC1CCCO1 (stereo unspecified)	-1.2
O=C(c1ccc([N+](=O)[O-])cc1)c1ccc2c(c1)C(=O)N(c1cccc(O)c1)C2=O	-0.42
Cn1c(=O)c2c(nc(NCCOCCO)n2Cc2ccccc2Cl)n(C)c1=O	0.71
CCOC(=O)c1[nH]c2ccccc2c1NC(=O)CN(CC)CC	-0.81
Cc1c(Cl)cccc1NC(=O)C1CC(=O)N(c2cccc(Cl)c2C)C1 (stereo unspecified)	0.43
CC(C)C(=O)Nc1ccc(S(=O)(=O)Nc2nccs2)cc1	2.1
O=C(Nc1c2c(nn1-c1ccc(F)cc1)CSC2)c1ccc(Cl)c([N+](=O)[O-])c1	0.82
CCOC(=O)c1nc(C)[nH]c1C(=O)OCC	1.5
CCOc1ccc2nc(SCC(=O)Nc3ccccc3C(=O)O)sc2c1	0.42
O=C(CN1C(=O)COc2ccc(Cl)cc21)N1CCc2ccccc2C1	1.5
CC(=O)C12c3ccccc3C(c3ccccc31)C1C(=O)N(c3cccc(Cl)c3)C(=O)C12 (stereo unspecified)	-0.51

An excerpt. The share of hits here may be higher or lower than overall.
